Arbovirus inh: antivirals against arbovirus infection, primary screen, cell-based, full library, 10K replicate subset. arbovirus infection cell-based antiviral screen. inhibition, % at 10 µM. actives 0.37% (n = 200,000). AID 1251, 2008;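 active = inhibition from about 30%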;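 also: bluetongue infection of BSR cells; cell survival read as ATP light after 72 h; 0% = infected wells without compound and 100% = uninfected wells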
RecA splice inh: Mtb RecA intein splicing inhibitors, primary screen, biochemical, fluorescence, HTS. Protein RecA (Mycobacterium tuberculosis (strain ATCC 25618 / H37Rv)), P9WHJ3. cell-free RecA intein splicing. inhibition, %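 (about 9 µM by stock and volumes)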. actives 0.75% (n = 290,000). AID 2221, 2009; in the data active = inhibition above about 30%;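 also: 0% = vehicle wells and 100% = reference inhibitor control wells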
Target sequence (P9WHJ3 whole entry, looked up, canonical isoform): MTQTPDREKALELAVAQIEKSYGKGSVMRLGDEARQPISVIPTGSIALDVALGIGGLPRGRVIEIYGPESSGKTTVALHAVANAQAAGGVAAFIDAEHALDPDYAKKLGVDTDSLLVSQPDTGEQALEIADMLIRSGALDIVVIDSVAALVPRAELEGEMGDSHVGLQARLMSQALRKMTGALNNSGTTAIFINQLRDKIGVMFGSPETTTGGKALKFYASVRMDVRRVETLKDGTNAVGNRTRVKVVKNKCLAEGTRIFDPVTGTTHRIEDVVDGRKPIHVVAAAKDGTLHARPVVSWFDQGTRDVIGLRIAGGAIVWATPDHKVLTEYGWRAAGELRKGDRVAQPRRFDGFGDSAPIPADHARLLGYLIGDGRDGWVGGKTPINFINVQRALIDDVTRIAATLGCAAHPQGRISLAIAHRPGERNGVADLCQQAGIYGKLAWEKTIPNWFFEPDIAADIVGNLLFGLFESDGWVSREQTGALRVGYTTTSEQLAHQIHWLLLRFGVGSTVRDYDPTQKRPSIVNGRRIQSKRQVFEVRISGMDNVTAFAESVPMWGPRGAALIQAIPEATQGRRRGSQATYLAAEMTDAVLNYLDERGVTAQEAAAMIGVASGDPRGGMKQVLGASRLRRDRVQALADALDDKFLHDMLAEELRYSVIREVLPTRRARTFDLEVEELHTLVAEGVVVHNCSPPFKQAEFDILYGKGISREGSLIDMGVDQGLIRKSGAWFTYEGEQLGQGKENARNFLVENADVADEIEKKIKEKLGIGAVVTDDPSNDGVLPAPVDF
Mtb bLac sens: beta-lactam sensitization of Mtb H37Rv, H37Rv; M. tuberculosis H37Rv growth with meropenem, percent inhibition; hits of this screen are not shown here; inhibition, % at 25 µM; actives 0.27% (n = 330,000);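 active = about 74% or more and at least 40 points above the plate without the antibiotic, then above 30% in a dose series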;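 also: growth measured after seven days incubation then overnight dye step; 0% = bacteria only wells and 100% = bacteria with antibiotic; twin plates without the antibiotic show which effects depend on it; some results filed as inactive read as strong as hits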
YopH PTP inh: YopH tyrosine phosphatase inhibitors, primary screen, biochemical, fluorescence Ex485/Em525; inhibition, %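 (about 10 µM by stock and volumes)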; actives 0.16% (n = 140,000); AID 898, 2007;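 active = inhibition of 50% or more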;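 also: controls were vehicle for no effect and minimum signal wells for full effect; inactives centre near -20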
Mtb H37Rv: M. tuberculosis H37Rv growth inhibitors, H37Rv strain (AID 1626); actives 0.95% (n = 220,000); M. tuberculosis H37Rv growth inhibition; higher % means a stronger effect; inhibition, % at 10 µM, or IC50 in µM where a hit was titrated;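 active = confirmed in a dose series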;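 also: bacteria incubated seven days before Alamar blue readout; 0% = bacteria only wells and 100% = bacteria with antibiotic wells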
Arbovirus inh repeat: second read-out of Arbovirus inh, no call of its own (marks repeat the call); inhibition, %; measured here: 10K subset replicate screen; many hits read low in the repeat;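 first of two repeat runs on a subset; 0% = infected and 100% = uninfected wells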
The depositor's hits bear a star; nt = no result given. Not all compounds are listed (hit frequency here may not be typical).

SMILES	Arbovirus inh	RecA splice inh	Mtb bLac sens	YopH PTP inh	Mtb H37Rv	others
CCN1CCCC1Cn1cnc2c([nH]c3ccc(C)cc32)c1=O (stereo unspecified)	4	0.6	-9	-2	nt
CCCOC(=O)C1C2C=CC3(CN(c4ccc(Cl)c(F)c4)C(=O)C13)O2 (stereo unspecified)	0	-0.1	-5	-25	4%	Arbovirus inh repeat=-1
C=CCNC(=O)NC(=O)CSc1nc2cc([N+](=O)[O-])ccc2n1-c1cccc(C(F)(F)F)c1	-19	-1.0	-1	-4	5%
CCOc1ccc(NS(=O)(=O)c2ccc(C(=O)NCC(C)(C)N3CCOCC3)cc2)cc1	nt	-2.8	-9	nt	nt
CCOC(=O)C[C@H]1c2ccccc2S(=O)(=O)N1Cc1cccc(C(F)(F)F)c1	nt	1.3	-5	nt	-7%
COc1ccccc1NC(=O)CSc1nnc(CNC(=O)c2ccco2)n1C	nt	-2.8	-10	nt	nt
CC(=O)n1cc(/C=N/NC(=O)c2ccc([N+](=O)[O-])cc2)c2ccccc21	nt	1.5	6	nt	nt
COc1ccccc1N1CCN(CCN2C(=O)CC3(CCCC3)CC2=O)CC1	nt	2.3	-8	nt	-14%
O=C(Nc1cccnc1)c1ccc(F)cc1	-2	-1.7	-8	-1	-2%
Cc1onc(-c2ccccc2)c1C(=O)Nc1nnc(-c2ccncc2)s1	9	-0.5	96	-48	3%
Cc1cc(C(=O)OCC(=O)NC(C)c2ccccc2)c(C)o1 (stereo unspecified)	-5	3.6	-2	nt	-3%
O=C(N/N=C/c1ccccc1OC(=O)c1ccc2c(c1)OCO2)c1ccccc1	-24	-3.8	-2	-16	-1%
COc1ccccc1C1=NC(c2ccccc2)CN1c1ccccc1 (stereo unspecified)	nt	-10	0	nt	nt
COCCCNS(=O)(=O)c1ccc2[nH]c3c(c2c1)CCCCC3	nt	-1.2	0	nt	nt
Cc1cccc(NC(=O)C2CCN(S(=O)(=O)c3c(C)noc3/C=C/c3ccco3)CC2)n1	5	2.9	74	-18	11%
CC(=O)CSc1ncnc2sc3c(c12)CCCC3	-9	-2.5	0	nt	6%
C=CCOn1c(=O)c(-c2ccc(OC)c(OC)c2)[n+]([O-])c2ccccc21	2	-0.6	3	-20	1%
CCOc1ccc2ccccc2c1CNc1nnnn1CC	-1	0.0	-10	nt	-4%
Cc1[nH]c2ccccc2c1C(c1ccncc1)N1CCC(C)CC1 (stereo unspecified)	-2	-2.2	-11	nt	1%
CC1CCCCC1NC(=S)Nc1ccc(Cl)cc1Cl (stereo unspecified)	-3	14	-2	nt	3%

5 neighbouring entries out of the list so far, for reference:
SMILES	Arbovirus inh	RecA splice inh	Mtb bLac sens	YopH PTP inh	Mtb H37Rv	others
CCN1CCCC1Cn1cnc2c([nH]c3ccc(C)cc32)c1=O (stereo unspecified)	4	0.6	-9	-2	nt
CCCOC(=O)C1C2C=CC3(CN(c4ccc(Cl)c(F)c4)C(=O)C13)O2 (stereo unspecified)	0	-0.1	-5	-25	4%	Arbovirus inh repeat=-1
C=CCNC(=O)NC(=O)CSc1nc2cc([N+](=O)[O-])ccc2n1-c1cccc(C(F)(F)F)c1	-19	-1.0	-1	-4	5%
CCOc1ccc(NS(=O)(=O)c2ccc(C(=O)NCC(C)(C)N3CCOCC3)cc2)cc1	nt	-2.8	-9	nt	nt
CCOC(=O)C[C@H]1c2ccccc2S(=O)(=O)N1Cc1cccc(C(F)(F)F)c1	nt	1.3	-5	nt	-7%

New compounds follow:
SMILES	Arbovirus inh	RecA splice inh	Mtb bLac sens	YopH PTP inh	Mtb H37Rv	others
O=c1cc(N2CCOCC2)c2ccccc2o1	6	-2.1	5	-15	-3%
COc1ccc(OCC(=O)N(Cc2ccc(C)o2)C2CCS(=O)(=O)C2)cc1 (stereo unspecified)	nt	0.2	2	nt	nt
Nc1nc(SCC(=O)Nc2cc(-c3ccccc3)nn2-c2ccccc2)n[nH]1	-3	6.5	2	-18	-5%
CCc1ccccc1NCC(=O)Nc1ccc(Cl)c(C(F)(F)F)c1	-32	0.4	5	-3	11%
O=C(NCCN1CCOCC1)c1ccc(Cl)c(S(=O)(=O)N2CCOCC2)c1	nt	-1.8	1	nt	nt
C/C(=N/Nc1ccnc2cc(Cl)ccc12)c1ccc(O)cc1	nt	-0.5	89	nt	nt
C=CCn1c(C)cc(C(=O)CSc2nc3ccccc3o2)c1C	13	1.9	-2	18	-1%
COc1ccc(NC(=O)C2CCCN(CCCc3ccccc3)C2)cc1OCC(C)C (stereo unspecified)	nt	-1.5	3	nt	nt
CNC(=O)CN(c1ccc(OC)cc1)S(=O)(=O)c1ccc(F)cc1	4	-4.2	3	-19	-5%
O=C(NNC(=O)c1ccccc1-n1cccc1)c1ccc(Cl)cc1Cl	1	-1.9	-7	-30	-5%
CC(C)c1ccc(/C=C2\Oc3c(ccc(O)c3CN3CCN(C)CC3)C2=O)cc1	3	-10	2	nt	8%
CCOP(=O)(OCC)C(Nc1ccc(C(=O)O)cc1)c1ccccc1 (stereo unspecified)	nt	-1.5	-2	nt	1%
O=C(COc1ccc(Nc2ccccc2)cc1)OCC(=O)N1CCCCC1	nt	-1.0	100	nt	19µM*
Cc1ccc(NC(=O)CCN2CCOCC2)cc1C	nt	0.1	1	nt	nt
Cc1ccc(-c2cc(C(=O)NCc3ccc4c(c3)OCO4)no2)cc1	-4	-1.2	-11	3	-2%
O=C(CCc1ccccc1)NCCc1cccs1	3	0.4	-10	nt	-1%
COc1ccc(S(=O)(=O)N(C)CC(=O)Nc2ccccc2SC)cc1Cl	6	0.5	-4	7	6%
COCCN=C1Sc2nc3ccc(C)cc3cc2CN1Cc1cccs1	4	9.3	28	nt	11µM*
COc1ccc2cc(C(c3nnnn3C(C)(C)C)N3CCSCC3)c(=O)[nH]c2c1 (stereo unspecified)	-11	-0.6	2	-38	-2%
CN(C)/C(Cn1cncn1)=C1/N=C(c2ccccc2)OC1=O	1	-0.7	2	nt	0%
CC1CCCN(Cc2csc(N)n2)C1 (stereo unspecified)	-3	-0.6	2	nt	-8%
CC(=O)c1ccc(C#CC(C)(C)O)s1	11	0.1	-3	-33	3%
C/C(=N\O)C(C)(C)Nc1ccc(F)cc1	nt	1.1	5	nt	0%
COc1ccc(C2C(C#N)=C(C)NC(C)=C2C(=O)OC(C)C)c(OC)c1 (stereo unspecified)	-9	nt	3	nt	-4%
CCn1ncc(C(=O)Nc2ccccc2C)c1C	-4	1.5	-7	-38	-4%
O=C(NC(Cc1c[nH]c2ccccc12)C(=O)O)/C(=C/c1ccc2c(c1)OCO2)NC(=O)c1ccccc1 (stereo unspecified)	-1	-4.1	nt	nt	5%
CCOC(=O)COc1c(Cl)cc(C2NC(=S)NC(c3ccccc3)=C2C(C)=O)cc1OC (stereo unspecified)	11	1.9	-3	-31	10%
Fc1ccccc1OCCCCSc1ncccn1	-2	3.6	-16	18	2%
Nc1c(Cl)cc(NC(=O)c2ccccc2C(=O)O)cc1Br	0	-0.5	4	-34	-1%
CC(=O)Nc1ccc(NC(=O)COc2ncnc3ccccc23)cc1	0	0.1	-8	nt	-5%
CN1C(=O)CC(N2CCN(c3ccc(Cl)c(Cl)c3)CC2)C1=O (stereo unspecified)	-4	2.0	0	-10	3%
COc1ccc(NC(=O)Nc2ccc(Cc3ccncc3)cc2)cc1OC	-5	-0.4	-3	-34	3%
Cc1ccc(N=C2NC(=O)/C(=C/c3cccn3C)S2)cc1	nt	3.4	0	nt	-1%
COc1cccc(Oc2nc(N)ncc2[N+](=O)[O-])c1	nt	4.3	-2	nt	nt
Cc1ccc(C)c(S(=O)(=O)N2CCCC2CNC(=O)C(=O)NCc2ccccn2)c1 (stereo unspecified)	nt	1.8	1	nt	nt
CCCN(CC(=O)Nc1ccc(OC)c(OC)c1)CC(=O)Nc1ccc(F)c(F)c1F	0	1.8	-11	nt	1%
Cc1c(NC(=O)Nc2ccc([N+](=O)[O-])cc2)c(=O)n(-c2ccccc2)n1C	nt	-1.5	1	nt	nt
COC(=O)[C@@]12CCCCN1[C@H](c1ccc(SC3CCCCC3)cc1)[C@H]1C(=O)N(C)C(=O)[C@H]12	nt	-1.5	-2	nt	nt
Cc1ccc(NC(=O)Cn2c(=O)n(Cc3ccco3)c(=N)c3c4c(sc32)COC(C)(C)C4)cc1	-5	2.5	4	-35	-5%
O=[N+]([O-])c1ccc(CNc2cccc(F)c2)s1	nt	0.7	4	nt	nt

Fetched by compound from above, 5 records:
SMILES	Arbovirus inh	RecA splice inh	Mtb bLac sens	YopH PTP inh	Mtb H37Rv	others
COC(=O)[C@@]12CCCCN1[C@H](c1ccc(SC3CCCCC3)cc1)[C@H]1C(=O)N(C)C(=O)[C@H]12	nt	-1.5	-2	nt	nt
Fc1ccccc1OCCCCSc1ncccn1	-2	3.6	-16	18	2%
COc1ccc(NC(=O)Nc2ccc(Cc3ccncc3)cc2)cc1OC	-5	-0.4	-3	-34	3%
Nc1c(Cl)cc(NC(=O)c2ccccc2C(=O)O)cc1Br	0	-0.5	4	-34	-1%
CN1C(=O)CC(N2CCN(c3ccc(Cl)c(Cl)c3)CC2)C1=O (stereo unspecified)	-4	2.0	0	-10	3%

Back to the main list with the three entries that preceded the break.
SMILES	Arbovirus inh	RecA splice inh	Mtb bLac sens	YopH PTP inh	Mtb H37Rv	others
COC(=O)[C@@]12CCCCN1[C@H](c1ccc(SC3CCCCC3)cc1)[C@H]1C(=O)N(C)C(=O)[C@H]12	nt	-1.5	-2	nt	nt
Cc1ccc(NC(=O)Cn2c(=O)n(Cc3ccco3)c(=N)c3c4c(sc32)COC(C)(C)C4)cc1	-5	2.5	4	-35	-5%
O=[N+]([O-])c1ccc(CNc2cccc(F)c2)s1	nt	0.7	4	nt	nt
O=C(Nc1cccc(Cl)c1)Nc1nc(-c2ccc(Cl)cc2)cs1	4	3.5	1	-2	0%
COC(=O)Cn1c(=O)c2c(n(Cc3ccccc3)c1=O)N/C(=C/c1ccc(Br)cc1)C2=O	nt	-6.1	-4	nt	-6%
Cc1ccc(C)c(NC2=CC(=O)CC(C)(C)C2)c1C#N	-4	-1.0	-10	-38	11%
CCOC(=O)CN1C(=O)C(Sc2n[nH]c(-c3ccccc3)n2)CCc2ccccc21 (stereo unspecified)	-13	6.4	7	-14	-15%
COc1ccc(Cn2c(=O)oc3ccc(C)cc32)cc1OC	10	1.3	2	0	1%
COC(=O)C1=NN(c2cccc3ccccc23)C2C(=O)N(c3ccccc3OC)C(=O)C12 (stereo unspecified)	nt	-2.2	-4	nt	-13%
CN1CCN(S(=O)(=O)c2cc(C(F)(F)F)ccc2Cl)CC1	nt	2.2	-11	nt	nt
Cc1ccc(C(=O)NC(=O)OCCn2c(C)cnc2[N+](=O)[O-])cc1	0	0.2	2	nt	-2%
CC(=O)c1ccc(NC(=O)CC2Nc3cccc4cccc(c34)NC2=O)cc1 (stereo unspecified)	-3	-0.5	1	nt	2%
COc1ccccc1NC(=O)c1[nH]c(C)c(C(C)=O)c1C	7	2.6	2	-23	-2%
Cc1cc(C(=O)COc2cc(F)ccc2[N+](=O)[O-])c(C)n1C1CC1	-4	-0.4	-3	nt	-5%
Cc1cccc(-n2cc[nH]c2=S)c1	-6	1.9	-10	-4	-3%
CCc1nnc(NS(=O)(=O)c2ccc(NC(=S)NC(=O)c3cccs3)cc2)s1	0	-2.7	9	nt	5%
CC(C)c1ccc(OCC(=O)Nc2ccc(OC(F)(F)F)cc2)cc1	2	0.1	58	-35	87%
Cc1occc1-c1nnc(SCC(=O)N2CCN(c3ccccc3F)CC2)n1C	-4	0.7	-7	-23	1%
Nc1ccc(C(=O)Nc2ccc(NC(=O)c3ccco3)c(O)c2)cc1	nt	-2.5	4	nt	-3%
CC1(C)CC(n2c(NCCO)nc3c(c2=O)C2(CCCC2)Cc2ccccc2-3)CCO1 (stereo unspecified)	-17	5.8	28	-22	18%	Arbovirus inh repeat=-19
COc1ccc(NC(=O)CNC(=O)C2CCCCC2)cc1	nt	-0.2	-2	nt	nt
CNS(=O)(=O)c1cc(O)c2c(S(=O)(=O)NC)cccc2c1	6	-0.1	-2	-25	56%
O=C1C(Cl)=C(N2CCCCCC2)C(=O)N1c1ccccc1	12	36*	-3	-9	0%	Arbovirus inh repeat=4
Cc1n[nH]c(C)c1CCCCOc1ccc([N+](=O)[O-])cc1	nt	4.0	4	nt	nt
O=C(CSc1ccsc1[N+](=O)[O-])Nc1cc(F)ccc1F	-7	3.4	nt	nt	68%
Cc1ccc(C)c(OCc2cc(C(=O)N3CC[C@@H]4CCCC[C@H]4C3)no2)c1	nt	3.0	-6	nt	nt
CC1=C(C(=O)OC2CCCC2)C(c2coc3ccccc3c2=O)C2=C(CC(C)(C)CC2=O)N1 (stereo unspecified)	nt	0.1	2	nt	nt
COc1ccccc1/C=C/C(=O)NC(=S)NCC1CCCO1 (stereo unspecified)	16	2.6	-3	nt	-6%
Oc1c(N=NC(=S)Nc2ccccc2F)c2ccccc2n1Cc1ccccc1	-6	2.7	31	nt	-4%
